Compound activity deposited in PubChem by National Center for Advancing Translational Sciences (NCATS).
TRPML1 agonist – human mucolipin-1 channel agonism | TRPML1-expressing cells, Ca2+ dye fluorescence, FDSS; host cell line not named in the record; reference of the full effect not given here | activation, % (no concentration beside the values) | 410,000 tested, 0.12% active | AID 624414; in the data active = activation above about 50%; inconclusive = about 30% to 50%; inactive = below about 30%; also: 0% is about no effect; the text of the record puts the active cut at 80%
Target sequence (Q9GZU1 whole entry, looked up): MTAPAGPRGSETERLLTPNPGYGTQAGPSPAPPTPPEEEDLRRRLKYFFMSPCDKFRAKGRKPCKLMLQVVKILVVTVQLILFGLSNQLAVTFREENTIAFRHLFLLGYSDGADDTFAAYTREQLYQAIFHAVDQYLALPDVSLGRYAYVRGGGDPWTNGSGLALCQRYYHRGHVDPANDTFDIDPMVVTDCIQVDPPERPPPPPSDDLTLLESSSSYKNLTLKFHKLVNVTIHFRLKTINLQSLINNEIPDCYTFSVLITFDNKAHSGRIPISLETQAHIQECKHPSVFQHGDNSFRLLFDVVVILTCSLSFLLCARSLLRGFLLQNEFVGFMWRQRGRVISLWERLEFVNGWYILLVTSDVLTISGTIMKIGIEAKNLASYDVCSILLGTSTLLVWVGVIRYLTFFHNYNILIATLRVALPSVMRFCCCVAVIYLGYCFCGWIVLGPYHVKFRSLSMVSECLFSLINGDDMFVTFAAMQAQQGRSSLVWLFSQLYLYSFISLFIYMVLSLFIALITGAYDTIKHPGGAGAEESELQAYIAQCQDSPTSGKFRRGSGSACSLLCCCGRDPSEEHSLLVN
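In this qHTS format, compounds were pin-transferred onto Ca8-dye-loaded TRPML1-DL cells induced with Tet overnight, and intracellular Ca2+ fluorescence was recorded kinetically for 110 s after a 10 s baseline. A subsequent 4uM final 54-4 (EC80) addition followed by a second 110 s read served as the antagonist phase.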
Sfp inh – Sfp phosphopantetheinyl transferase inhibition. Potency, µM, inactives show max response, negative = inhibition, actives largely listed as inhibitors. 310,000 tested, 3.5% active. Biochemical Sfp PPTase activity, qHTS; active = well fitted inhibition curve with a large enough effect; inconclusive = small, poorly fitted or top-dose-only effect, or another doubt; inactive = no such curve, though single readings can be large or run the other way;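 also: the enzyme is Sfp with the accession as filed and its product quenches rhodamine fluorescence; potency is read from the fitted curve at half-maximal effect; 0% = enzyme reaction without inhibitor and -100% = no enzyme wells; top concentration of the series not given in the record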
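Step 1, compound plus 15 nM Sfp-PPTase, 15 min, room temperature. Step 2, add rhodamine-CoA (5 uM) and BHQ-2-YbbR (12.5 uM). Step 3, read 525/598 nm fluorescence at 0 and 30 min.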
PINK1 expr mod – modulators of PINK1 expression; PINK1 immunofluorescence, high-content cytometry, 24 h; Potency, µM (doses to about 76.6 µM), without a hit: at the highest dose activation (PINK1 increase), actives largely listed as activators; 410,000 tested, 0.2% active; active = well fitted activation curve with a large enough effect; inconclusive = small, poorly fitted or top-dose-only effect; inactive = flat fitted curve, though single readings scatter; cell line not stated here;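 also: potency is read from the fitted curve at half-maximal effect; % of control where 0% means no effect; nearly all actives have a fitted effect of over 65% in size; a mitochondrial uncoupler was the plate control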
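Measures PINK1 amount and localization on or inside mitochondria by immunofluorescence. Stable cells get compounds at 5 concentrations for 24 hours before fixation and staining; CCCP controls included.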
ClpP mod – qHTS Assay for Activators of ClpP; ATP-dependent Clp protease proteolytic subunit (Bacillus subtilis (strain 168)), P80244; purified B. subtilis ClpP, FRET peptide cleavage, 20 min; Potency, µM (titrated, usually from 57.5 µM), inactives show top-dose activity change, negative = active; 340,000 tested, 1.9% active; AID 651965, 2013; active = well fitted falling curve with a large enough effect; inconclusive = small, poorly fitted or top-dose-only effect; inactive = no such curve, though single readings can be large or run the other way; also: potency is read from the fitted curve at half-maximal effect; the source files actives as falling curves though it sought activators and does not explain the sign; nearly all actives have a fitted effect of over 65% in size; many hits overshoot -100%
Target sequence (P80244 whole entry, looked up): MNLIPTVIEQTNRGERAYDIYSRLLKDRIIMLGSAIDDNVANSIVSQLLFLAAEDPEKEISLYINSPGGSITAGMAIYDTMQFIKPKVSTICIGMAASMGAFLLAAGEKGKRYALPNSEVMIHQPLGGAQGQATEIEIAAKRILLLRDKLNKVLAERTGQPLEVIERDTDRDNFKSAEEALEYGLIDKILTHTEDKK
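Buffer: 100 mM Tris/HCl pH8, 100 mM KCl, 0.05% low protease BSA, 2.5% glycerol, 0.01% Tween-20. ClpP 10 microg/mL final; 20 min RT; delta FRET normalized to ADEP and DMSO controls.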
TRPML1 blocker – human mucolipin-1 channel inhibition; Q9GZU1; TRPML1-inducible cells, Ca2+ dye fluorescence, FDSS; stronger effect = lower value; inhibition of EC80 agonist-evoked calcium signal; activity change, negative = inhibition, % (no concentration beside the values); 390,000 tested, 0.02% active; in the data active means activity change below about -50%; inconclusive means about -30% to -50%; inactive means above about -30%;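 also: stimulus is agonist 54-4 at its EC80 concentration; % is scaled to controls: 0 for no effect and ±100 for the full control effect; compound concentration not given in the record; the text of the record puts the active cut at -80%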
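Calcium fluorescence in TRPML1-DL cells induced overnight with Tet: a 110 s read after compound pin addition, then a 110 s antagonist read after challenge with 54-4 at 4 uM final (EC80).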
Menin-MLL FL inh – inhibitors of human menin-MLL interaction, wild-type MLL peptide. Fluorescence polarization, fluorescein-MLL peptide displacement from menin. FP activity change, % at 61.4 µM. 290,000 tested, under 10 active. AID 1766; inconclusive = falling polarisation curve, or a change in total fluorescence; inactive = total fluorescence flat and polarisation flat or rising; no compound was filed as active; the % refers to the polarisation; negative = inhibition;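 also: % of control where 0% means no effect; inhibitors lower the polarisation; unlabelled MLL peptide was the positive control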
TRPV1 PAM – enhances activation of the human vanilloid receptor TRPV1. 320,000 tested, 0.02% active. AID 540277. potentiation, % at 8.33 µM. TRPV1-expressing cells, Fluo-8 calcium influx, capsaicin EC20 potentiation; host cell line not named in the record; control for the full effect not named in the record. Q8NER1; active means potentiation above 80%; inconclusive means 30% to 80%; inactive means below 30%; also: 0% is about no effect
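Cells expressing TRPV1 were dye-loaded with Fluo-8 and read kinetically: 10 s baseline, 3 min after compound (agonist portion), then 2 min after EC20 capsaicin (allosteric enhancer portion). Calcium-bound dye fluorescence at 480/520 nm.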
The depositor's hits bear a star; ? = inconclusive; . = no result given; & = joins results of further samples; [ ] = remark or other dose.

SMILES	TRPML1 agonist	Sfp inh	PINK1 expr mod	ClpP mod	TRPML1 blocker	Menin-MLL FL inh	TRPV1 PAM
Cc1cc(C(F)(F)F)n(-c2nc(C(=O)NNS(=O)(=O)c3ccccc3[N+](=O)[O-])cs2)n1	0.5	-2%	7.6%	.	1	-0.2	8
COc1ccc(NC(=O)Cn2c(=O)n(-c3ccc(OC)cc3OC)c(=O)c3c(C)c(C)sc32)cc1	-0.1	11%	3.9%	-2.6%	-5	4.8	17
CC(C)=CC(=O)OCc1csc(CC(=O)Nc2ccccc2C)n1	1.8	-1%	-0.4%	0.1%	-20	.	8
CN1CCN(C(=O)C2=C[C@@H](c3ccc(C(F)(F)F)cc3)C[C@@H](OCc3ccc(CO)cc3)O2)CC1	0.7	-7%	-0.4%	-1.2%	5	-5.2	-4
Cc1ccc(-c2nnc(SCC(=O)Nc3cccc(C(=O)N4CCOCC4)c3)n2C)cc1	-0.7	28%	-1.4%	1.4%	2	1.5	16
CC(CC(=O)N1CCN(c2ccccc2)CC1)c1ccccc1 (configuration not stated)	1.6	3%	-1.2%	-2.5%	-9	0.8	-23
Cc1ccc([N+](=O)[O-])cc1NC(=S)NCCc1ccccc1	0.4	12%	3.8%	-2.7%	20	.	8
CC(C)CC(c1nnnn1CC1CCCO1)N1CCN(c2cccc(Cl)c2)CC1 (configuration not stated)	1.9	-2%	5.7%	-0.3%	17	-9.5	-13
CCOc1cc(/C=N/NC(=O)c2ccncc2)ccc1OC(=O)c1ccco1	0.9	17%	3.7%	0.2%	-9	.	9
COc1cccc(CNC(=O)CCC2CCCN(C3CCOCC3)C2)c1 (configuration not stated)	-0.7	7%	-1.1%	.	3	-3.5	-7
Cc1ccc(CNC(=O)C(=O)NCC(c2cccs2)S(=O)(=O)c2ccc(C)cc2)cc1 (configuration not stated)	3.7	.	2.3%	0.6%	78	.	.
CS(=O)(=O)N(C(=O)NC(=O)NC12CC3CC(CC(C3)C1)C2)C1CCCCC1	-0.4	27%	-0.3%	.	10	-1.2	8
CCOc1cc(C(=O)NC(C)CC)cc(OCC)c1OCC (configuration not stated)	0.0	16%	-0.4%	-0.5%	-10	3.5	5
O=C(C1CCN(S(=O)(=O)N2CCOCC2)CC1)N1CCN(c2ccccc2F)CC1	0.6	16%	-1.4%	1.7%	1	-1.2	23
COc1ccccc1S(=O)(=O)Cc1ccc(C(=O)NCc2ccccc2)o1	-0.6	13%	-0.7%	0.2%	-7	-4.5	-10
COc1ccc(CNc2ncncc2-c2cccc(NS(C)(=O)=O)c2)c(OC)c1	.	3%	0.0%	.	.	0.9	.
CC(C)c1ccc(N=C2NN=C(c3cccs3)CS2)cc1	0.0	6%	?	.	-3	6.2	-8
CCn1c(C(=O)NCc2ccccc2C)cc2oc3ccccc3c21	2.7	.	2.8%	4.3%	45	.	.
O=C(c1cccc(Oc2ccccc2)c1)N1CCN(c2ccccn2)CC1	1.6	-5%	0.1%	.	-5	-1.6	-15
Cc1cccc(C)c1OCC(O)Cn1c2ccccc2c2ccccc21 (configuration not stated)	0.9	14%	5.2%	-14%	5	0.6	7
CCCSc1ccc([C@@H]2[C@H]3C(=O)N(CC)C(=O)[C@H]3[C@]3(C(=O)OC)CCCN23)cc1	-0.3	.	0.5%	-1.9%	32	.	-19
CCOc1ccc(S(=O)(=O)N2CCN(c3cccc(C(F)(F)F)c3)CC2)cc1OCC	-0.1	.	-1.4%	-7.5%	2	.	.
O=C(COC(=O)CCCSc1nc2ccccc2[nH]1)Nc1ccc(Cl)cc1	1.6	14%	3.4%	29%	35	5.2	-11
COc1ccc(/C=N/NC(=O)c2ccncc2)cc1CSc1nc2ccccc2s1	-0.1	-13%	4.8%	-8.2%	-2	6.6	-8
CC(C)CCN1CCN(Cc2ccsc2)CC1CCO (configuration not stated)	1.3	17%	-0.2%	0.3%	1	-1.2	-3

Next section.
SMILES	TRPML1 agonist	Sfp inh	PINK1 expr mod	ClpP mod	TRPML1 blocker	Menin-MLL FL inh	TRPV1 PAM
Oc1cccc2ccc[n+](CC(O)Cn3c4ccccc4c4ccccc43)c12 (configuration not stated)	0.6	-28%	0.8%	-0.6%	1	0.2	8
Cc1ccc(-c2cc(C(=O)N/N=C/c3ccc([N+](=O)[O-])o3)c3ccccc3n2)o1	0.8	?	0.0%	-3.1%	-25	.	9
COc1ccc(-n2nnnc2SCC(=O)NCCc2ccccc2)cc1	-1.4	.	1.1%	-0.4%	-8	.	.
O=C(COC(=O)c1ccccc1C(=O)c1ccc(Cl)cc1)NCc1ccccc1	0.1	12%	0.9%	1.1%	27	0.5	-11
COc1ccccc1CNC(=O)CCCCn1c(=O)c2ccccc2n(CC(=O)Nc2c(C)cc(C)cc2C)c1=O	-0.3	.	0.0%	1.9%	-17	.	.
CC(=O)c1c(N2CCN(Cc3ccccc3)CC2)nc(=S)n(Cc2ccccc2)c1C	0.7	7%	19%	-3.3%	-16	2.9	0
COc1ccc(C(=O)NCC(c2ccc(F)cc2)N2CCOCC2)cc1S(=O)(=O)N1CCCC1 (configuration not stated)	-0.8	2%	-0.4%	-1.1%	3	5.0	9
COC(=O)c1c(NC(C)=O)sc(C(=O)Nc2ccccc2OC)c1C	1.1	3%	8.7%	.	37	1.2	1
Cc1cc(C)c(NC(=O)C2CCN(c3nc4ccccc4[nH]3)CC2)c(C)c1	1.4	.	-1.0%	-0.8%	-6	.	.
Cc1ccc(NC(c2cccc(Cl)c2)c2nnc(-c3ccccc3)o2)cc1F (configuration not stated)	-1.1	.	5.0%	-2.1%	0	.	.
CCn1cc(CNC(=O)C2CCC(=O)N(CCc3cccc(F)c3)C2)cn1 (configuration not stated)	-0.1	10%	-1.4%	-20%	13	1.5	-2
O=C(Nc1ccc(Cl)cc1)Nn1cnnc1	0.4	-1%	-2.0%	.	6	-0.3	-2
Cc1ccc(NC(=O)Cc2ccc(-n3c(C)nc4cccnc43)cc2)cc1C	-0.3	.	-0.1%	-2.4%	10	.	.
COc1ccc(Nc2nnc(-c3ccc(N4CCOCC4)c([N+](=O)[O-])c3)c3ccccc23)cc1	0.0	11%	2.1%	-0.1%	4	3.4	-11
Cc1ccc(C(=O)Nc2cccc(C(=O)NCc3ccccc3)c2)o1	0.7	9%	2.4%[38.3 µM]	-0.9%	24	1.7	-1
COc1ccc(C(=O)Nc2ccc3nc4n(c(=O)c3c2)CCCCC4)cc1OC	1.2&-0.5	.	0.8%&1.3%	0.7%&3.7%	28&11	.	.
O=C(Nc1cc(F)ccc1F)N1CCC(CN2CCCC2)CC1	0.9	.	1.3%	-0.8%	?	.	.
CC1Cc2ccccc2N1C(=O)Cn1cnc2ccccc2c1=O (configuration not stated)	0.6	6%	-0.9%	-0.4%	11	-3.2	8
COc1ccccc1CN(C)C(=O)c1cc(-c2cc(OC)c(OC)c(OC)c2)nc2ccccc12	0.8	-17%	-1.3%	.	1	-6.3	-7
O=c1c2cc3c(cc2nc2sc(Nc4cccc([N+](=O)[O-])c4)nn12)OCO3	0.8	.	-0.2%	-0.5%	20	.	.
CCOCCCNC(=O)CCC(=O)NNc1nc2ccccc2c2nc(C)nn12	0.3&-0.5	8%	-0.5%&1.3%	0.1%&-0.1%	5&-3	0.6	-2
CNC[C@H]1Oc2c(NS(=O)(=O)c3ccccc3)cccc2C(=O)N([C@H](C)CO)C[C@@H]1C	-0.1	.	1.7%	-1.5%	-4	.	.
COc1ccc(OC)c(N/C(=N/C(=S)Nc2ccccc2)Nc2nc(C)cc(C)n2)c1	-0.9	-25%	4.2%	-1.7%	1	5.6	-6
Cc1nn2c(C)c(C(=O)Nc3ccccc3)cnc2c1-c1ccccc1	0.9	0%	6.0%	.	-2	3.1	-20
CCn1c(SCC(=O)N2c3ccccc3CCc3ccccc32)nnc1-c1ccc(OC)cc1	1.0	11%	0.8%	1.0%	6	0.6	-25

(listing goes on)
SMILES	TRPML1 agonist	Sfp inh	PINK1 expr mod	ClpP mod	TRPML1 blocker	Menin-MLL FL inh	TRPV1 PAM
O=C(Nc1ccc2c(c1)CCCN2C(=O)c1cccs1)c1ccc(F)c(F)c1	1.2	.	1.2%	0.9%	23	.	.
Cc1cc(=O)oc2cc3c(cc12)OCCO3	2.1	14%	?	?	-3	2.0	-1
Cc1nc(C(=O)Nc2ccc(Cl)cc2)sc1C1(C)CC(c2ccccc2)=NO1 (configuration not stated)	-0.7	7%	7.6%	?	1	-2.0	-22
CC12COC3(P(=O)(c4ccccc4)c4ccccc4)CC1CCC23CP(=O)(c1ccccc1)c1ccccc1 (configuration not stated)	0.7	-8%	8.8%	.	-7	0.1	-9
CCCCN(C(=O)c1cnccn1)c1c(N)n(CCC)c(=O)[nH]c1=O	-0.5	.	-2.0%	.	3	.	.
O=C(O)c1ccc(N/N=C/c2cccc3nccnc23)cc1	.	-21%	-0.7%	0.7%	.	?	?
COCCn1c(C)cc(C(=O)COC(=O)c2ccc(N3CCCC3=O)cc2)c1C	-0.9	9%	-0.2%	2.2%	3	2.1	?
CSc1ccc(/C=N/NC(=O)C[n+]2ccccc2)cc1	0.5	8%	-1.7%	-8.8%	8	-0.8	-1
COc1ccccc1-c1cc(C(=O)Nc2cc(C)nn2-c2ccccc2)no1	2.7	-19%	?	15%	37	-1.6	-2
CN(C)CCCn1c(-c2ccccc2)nc(=S)c2c1CCCC2	-0.7	2%	-2.0%	-3.3%	-7	-1.3	0
CC1=C(C(=O)Nc2cc(C(=O)N3CCN(c4cccc(C)c4)C(C)C3)ccc2C)SCCO1 (configuration not stated)	-0.4	6%	-0.6%	-1.5%	0	1.4	-9
CC(=O)CCc1oc2ccccc2c1-c1ccccc1	0.5	3%	-0.4%	-1.1%	3	3.1	9
COc1cc(NC(=O)COC(=O)CC(C)(C)C)c(C)cc1[N+](=O)[O-]	1.1	-13%	0.3%	0.4%	0	3.6	7
O=C(N/C=N/O)C1=NOC(CNc2ncc(C(F)(F)F)cc2Cl)C1 (configuration not stated)	-0.8	9%	-1.8%	-4.1%	0	0.0	-8
